# Screening data as filed in PubChem BioAssay.
# PV pol inh: inhibitors of poliovirus RNA polymerase binding and polymerization; AID 588519; poliovirus polymerase elongation, fluorescence polarization; hits give low values; P03300; % elongation, % (compound at 16.7 µg/mL); 0.66% of 150,000 active; in the data active = % elongation below about 90%; note: some results filed as inactive read as strong as hits
# Target sequence (P03300 1749-2209 limits assumed): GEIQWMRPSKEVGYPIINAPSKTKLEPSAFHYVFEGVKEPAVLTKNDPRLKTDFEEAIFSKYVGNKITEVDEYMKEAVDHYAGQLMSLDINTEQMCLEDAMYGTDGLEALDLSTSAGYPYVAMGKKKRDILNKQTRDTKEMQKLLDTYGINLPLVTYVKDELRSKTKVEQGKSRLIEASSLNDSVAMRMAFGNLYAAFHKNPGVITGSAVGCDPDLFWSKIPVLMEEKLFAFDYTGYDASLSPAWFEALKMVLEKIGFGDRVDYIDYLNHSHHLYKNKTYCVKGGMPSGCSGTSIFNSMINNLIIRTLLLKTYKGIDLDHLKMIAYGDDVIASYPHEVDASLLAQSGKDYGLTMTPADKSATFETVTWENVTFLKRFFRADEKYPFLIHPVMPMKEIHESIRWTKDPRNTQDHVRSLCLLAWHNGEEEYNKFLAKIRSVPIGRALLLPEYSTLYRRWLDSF
# MbtI inh: MbtI salicylate synthase inhibition. purified MbtI enzyme, fluorescence intensity read-out. inhibition, %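 (about 17 µg/mL by stock and volumes)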. 0.89% of 100,000 active. AID 493033;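 active = above 50% in both replicates, above 80% if mildly self-fluorescent; inactive = the rest, strongly fluorescent compounds included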;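 note: 0% = mean of negative and 100% = mean of positive controls; one replicate is shown; some compounds called inactive have numbers as strong as hits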
# Target sequence (P9WFX0 whole entry, looked up): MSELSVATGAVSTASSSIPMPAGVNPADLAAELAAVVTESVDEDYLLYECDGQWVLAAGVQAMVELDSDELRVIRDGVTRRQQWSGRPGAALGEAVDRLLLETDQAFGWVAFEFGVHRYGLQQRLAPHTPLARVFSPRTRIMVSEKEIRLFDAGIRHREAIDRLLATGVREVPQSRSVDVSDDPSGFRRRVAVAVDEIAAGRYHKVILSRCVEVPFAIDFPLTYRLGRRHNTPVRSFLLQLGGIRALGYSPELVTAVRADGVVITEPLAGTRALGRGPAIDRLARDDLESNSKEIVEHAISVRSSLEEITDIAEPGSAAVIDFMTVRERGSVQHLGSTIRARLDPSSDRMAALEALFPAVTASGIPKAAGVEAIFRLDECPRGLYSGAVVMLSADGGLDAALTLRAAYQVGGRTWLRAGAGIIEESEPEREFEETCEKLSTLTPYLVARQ
# MenB inh: blocks the Mycobacterium tuberculosis MenB enzyme; 0.43% of 100,000 active; P9WNP5; MenB enzyme assay, absorbance read-out; some hits fall short of the stated cut; AID 540299; inhibition, %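 (about 12 µg/mL by stock and volumes)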;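 active = mean of two replicates above 30%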;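 note: 0% = no compound and 100% = wells with inactive enzyme; the first replicate is given; strong numbers were not always called active; inactives centre near -10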
# PV pol inh intensity: also measured in PV pol inh; calls as there; % elongation; measured here: total intensity read-out; formula for this scale not given here;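 total fluorescence in place of polarization; lower means less elongation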
# An asterisk follows results filed as active; i = inactive; / = no result given; & = joins results of further samples. Compounds were not picked by outcome, and some 2% of all compounds hit somewhere here.
# Every second line gives: PV pol inh	PV pol inh intensity	MbtI inh	MenB inh
COc1cccc(C(=O)c2sc3nsc(SCc4ccccc4)c3c2N)c1
  47	242	18	-52
O=C(Cc1ccc(S(=O)(=O)N2CCCC2)s1)Nc1nc2c(s1)CCCC2
  /	/	52	-18
CCc1ccc(-c2nc(CN3CCCC(C(=O)NCc4ccc(Cl)cc4)C3)c(C)o2)cc1 (stereo unspecified)
  100	104	0	5
NC(N)=N/N=C/c1c(Cl)cccc1Cl
  98	103	-1	1
C=CCNC(=O)Cc1c(O)c2ccccc2[nH]c1=O
  101	102	-208	29
NC(=O)c1ccc(-n2nnnc2-n2ccnc2)cc1
  99	102	-13	-31
CCN1CCN(c2ccc(N=Cc3cc(I)ccc3O)cc2)CC1
  102	104	-1	-50
O=C(OCc1ncc(-c2ccccc2)o1)c1nc(-c2ccccc2)n(-c2ccccc2)n1
  103	106	0	-31
O=P(CCCO)(Cc1ccccc1)Cc1ccccc1
  104	108	2	0
Cc1cccc(CN2CCC(CNC(=O)c3cc4cc5ccc(C)cc5nc4o3)CC2)c1
  104	106	115	1
O=C(Cc1ccccc1)c1cccs1
  119	121	/	-25
CC1CN(S(=O)(=O)c2ccc(C(=O)Nc3ccccc3)cc2)CC(C)O1 (stereo unspecified)
  101	103	-6	6
O=S(=O)(Cc1nc(CSc2ccccn2)cs1)c1ccc(Cl)cc1
  100	100	-6	0
Nc1c(S(=O)(=O)c2ccccc2)nnn1-c1ccc(OC(F)(F)F)cc1
  103	98	2	-1
CCN(CCNCc1c(C(=O)O)n(C)c2ccccc12)c1ccccc1
  100	103	1	12
CS(=O)(=O)Nc1ccc(C#N)cc1
  102	104	10	23
CC(O)c1nc2cc3ccccc3cc2[nH]1 (stereo unspecified)
  102	103	89	34*
CC(C)Cn1c(=S)[nH]c2ccccc21
  99	102	17	0
O=C1C=C2C(=CCOC2O)O1 (stereo unspecified)
  99	100	27	0
CCOc1cccc(S(=O)(=O)N=C2C=C(C(C)(C)C)C(=O)C(C(C)(C)C)=C2)c1
  104	106	13	-32
c1ccc(CCSc2nnc3sc4ccccc4n23)cc1
  100	104	-7	-9
O=C(NC(=S)N1CCOCC1)c1cn(-c2ccccc2)nc1-c1cccnc1
  103	109	-6	0
CC(N=C1NS(=O)(=O)c2ccccc21)C(=O)N1CCN(S(=O)(=O)c2cccs2)CC1 (stereo unspecified)
  101	96	12	-5
O=S(=O)(Nc1ccc(O)cc1)c1cccs1
  102	103	-4	18
Cc1ccc2c(c1)cc(CN(Cc1ccco1)C(=O)NCc1ccccc1)c1nnnn12
  101	103	-1	-28
CCOc1ccc(CNC(=O)c2cc(=O)[nH]c3ccccc23)cc1
  103	100	-11	5
CSc1ccccc1Sc1cc(C(=O)NCc2ccco2)c2ccccc2n1
  102	108	20	-23
COc1ccc2c(C)cc(NN)nc2c1
  110	100	6	-24
CCOC(=O)c1oc2ccc(S(=O)(=O)N3CCC(c4nnc(-c5ccc(OC)cc5)o4)CC3)cc2c1C
  100	101	12	-22
COc1cccc(NC(=O)Cn2ncc3c4ccccc4n(Cc4ccccc4)c3c2=O)c1
  102	105	30	1
C/C=N/NC(=O)c1ccccc1
  103	102	-2	-5
COC(=O)c1c(C)oc(C)c(C(=O)OC)c1=O
  103	108	-16	-4
CC1CCN(C(=O)c2cc(Cl)nc3ccccc23)CC1
  99	102	1	1
Cc1nnn(C23CC4CC(CC(C(=O)O)(C4)C2)C3)n1
  103	104	-1	-34
C=C1N(c2ccc(Cl)cc2)C(=O)OC12CCCCC2
  104	103	/	-19
O=c1c2ccccc2c(-c2cc(C(F)(F)F)cc(C(F)(F)F)c2)nn1CCO
  100	105	-6	10
O=C(OCCCn1c(=O)[nH]c2ccccc21)c1ccc2c(=O)n3c(nc2c1)CCCCC3
  104	109	-13	-4
Fc1ccc2c(c1)-c1nocc1CS2
  102	104	-1	-12
CC(C)CSC1=NSC2=NC(=O)/C(=C\c3ccc(SCc4ccco4)o3)C(=N)N12
  103	119	38	-36
CN(C)S(=O)(=O)c1cccc(CSc2n[nH]c(-c3cccs3)n2)c1
  102	108	3	-34
O=C(CS(=O)(=O)Cc1ccccc1)Nc1cc(F)cc(F)c1
  101	102	-27	-17
CCOC(=O)c1nc(NCCCN2CCN(c3cc(C)ccc3C)CC2)c2ccccc2n1
  101	104	-16	-35
CCN(CCS(=O)(=O)c1ccc(Cl)cc1)S(=O)(=O)c1ccc(Cl)cc1
  107	113	-10	-16
COc1ccccc1NC(=O)CSc1cc(=O)n(C)c2ccccc12
  102	103	5	-12
CC1CN(C(=O)c2ccc(N)cc2)CC(C)O1 (stereo unspecified)
  105	107	/	-25

# Looked up one by one from the list above:
# Every second line gives: PV pol inh	PV pol inh intensity	MbtI inh	MenB inh
CCN(CCS(=O)(=O)c1ccc(Cl)cc1)S(=O)(=O)c1ccc(Cl)cc1
  107	113	-10	-16
CCOC(=O)c1nc(NCCCN2CCN(c3cc(C)ccc3C)CC2)c2ccccc2n1
  101	104	-16	-35
O=c1c2ccccc2c(-c2cc(C(F)(F)F)cc(C(F)(F)F)c2)nn1CCO
  100	105	-6	10
Fc1ccc2c(c1)-c1nocc1CS2
  102	104	-1	-12
COC(=O)c1c(C)oc(C)c(C(=O)OC)c1=O
  103	108	-16	-4
O=C(OCCCn1c(=O)[nH]c2ccccc21)c1ccc2c(=O)n3c(nc2c1)CCCCC3
  104	109	-13	-4

# Other entries.
# Every second line gives: PV pol inh	PV pol inh intensity	MbtI inh	MenB inh
Cc1cc(C(=O)CSc2nc3ccccc3c(=O)[nH]2)c(C)n1C
  105	108	-3	1
Cc1ccc(Nc2nnc(C3C(=O)N(C)C4(C)CC3c3cc(Br)ccc3O4)s2)cc1 (stereo unspecified)
  100	97	0	-20
COC(=O)c1ccc(OCC(=O)c2ccc[nH]2)cc1
  113	119	-6	-2
COc1ccc2c(c1)nnc1n[nH]c(=O)n12
  92	96	1	-53
COC(=O)c1ccsc1NC(=O)c1cccc(C)c1
  102	108	31	-18
CN(c1ccc(C(=O)N2CCc3ccccc3C2)cc1)S(C)(=O)=O
  104	102	-7	-43
CCc1ccccc1NC(=O)NCCN1CCN(c2ccccc2)CC1
  103	103	-6	-14
CCOC(=O)NCc1n[nH]c(=O)c2ccccc12
  105	112	-2	-13
CCOC(=O)N1CCC(NCC(O)COc2ccccc2C(C)C)CC1 (stereo unspecified)
  104	109	-1	-7
COc1cccc(-c2ocnc2C(=O)NC2CCc3ccccc32)c1 (stereo unspecified)
  101	100	25	-12
CC(=O)N1CCC(N(CCCN2CCC(C)CC2)C(=O)Nc2ccc(Br)c(C)c2)CC1
  106	100	-5	-20
CC1CCN(CC(=O)Nc2ccc3ccccc3c2)CC1
  98	102	-7	-32
O=C(NCc1ccco1)c1cc(-c2ccc(F)cc2)nc2ccccc12
  101	106	99	/
CCCCN(C)S(=O)(=O)c1cc2c(cc1C)N(C(C)=O)CCO2
  103	104	-19	-18
CCOc1ccc2nc(SCC(=O)N(C)C)[nH]c2c1
  102	104	-7	/
O=C(NCc1ccccc1)C(NS(=O)(=O)c1cccs1)c1ccccc1 (stereo unspecified)
  101	107	3	-16
CC(C)(C)Oc1ncc(Br)c(OC(C)(C)C)n1
  103	104	-10	-17
COc1ccc(-c2cc(C(F)(F)F)nc(N3CCOCC3)n2)cc1
  101	96	12	-2
N=c1c(C(=O)NCC2CCCO2)cc2c(=O)n3ccccc3nc2n1CCCN1CCOCC1 (stereo unspecified)
  101	108	i	-91
COc1ccc(/C=C2\Cc3ccccc3C2=O)cc1
  105	110	-3	-14
O=C(/C=C/NCc1ccccc1)c1ccc(Br)cc1
  105	111	/	-2
CCC(SC1=Nc2ccccc2C2=NC(c3ccccc3)C(=O)N12)C(=O)NCc1ccco1 (stereo unspecified)
  102	104	3	3
COc1ccccc1Nc1nnc(-c2ccc(OC(C)C)c(OC)c2)o1
  97	104	102	-21
CCN(CC)c1nc(-c2cccs2)c(C(=O)c2ccc(N3C(=O)CCC3=O)cc2)s1
  105	116	21	-26
COc1ccccc1NC(=O)C(C)NS(=O)(=O)c1ccccc1 (stereo unspecified)
  99	102	3	0
CC(C)(C)c1ccc(-c2cc3ncc(-c4ccccc4)c(N)n3n2)cc1
  97	102	19	-11
CCOC(=O)c1cc(C(=O)OCC)c(=S)[nH]c1O
  103	104	32	-88
CSC(=Nc1cc(-c2ccccc2)[nH]n1)Nc1ccccc1
  103	106	6	6
COC(=O)c1cnc(N2CCN(c3ccccc3)CC2)c2ccccc12
  100	100	58	-16
Cc1cc(CNC(=O)c2cnc3ccccc3n2)c(C(F)(F)F)o1
  106	104	-5	-13
CCc1cccc(NC(=O)CSc2nc3c(c(=O)[nH]2)CCCC3)c1
  102	104	9	-27
COc1ccc(/C(=N/O)c2nccc3cc(OC)c(OC)cc23)cc1OC
  104	112	/	-19
Cn1ncc(Cl)c1C(=O)NC(=S)Nc1sc2c(c1C#N)CCCC2
  102	103	20	-45
Cc1noc(C)c1CSc1nc(-c2cccs2)c(-c2cccs2)[nH]1
  104	110	-106	-22
O=C(Nc1ccccc1)N(C1=NCCCCS1)c1ccccc1
  102	101	-14	16
COc1ccccc1NC(=O)c1ccc(-c2ccccc2)s1
  101	104	27	-6
COc1ccc(C(=O)COC(=O)CCn2c(C)csc2=O)cc1Cl
  103	103	-4	-26
CCOc1ccnc(SCC(=O)CC(=O)c2ccccc2)c1C#N
  75	161	i	-78
O=CNCCc1c[nH]c2ccccc12
  101	99	-8	-44
CC(C)COC(=O)n1c(=O)oc2ccc(S(=O)(=O)N3CCCCC3)cc21
  102	103	-4	-7
O=C(c1cccs1)N(Cc1nc2sc3c(c2c(=O)[nH]1)CCCC3)C1CCCC1
  104	102	4	-38
CN(C(=O)C(Cl)Cl)c1ccc(OC(=O)c2ccco2)cc1
  100	102	-12	-7
CN(C)CCCO[C@H]1[C@@H](C(O)CO)OC2OC(C)(C)O[C@@H]21 (stereo partly specified)
  99	101	-12	-11
COc1ccc2c(=O)c(Oc3ccccc3)coc2c1
  101	103	-10	-29
O=C(NCCOc1ccc(Cl)cc1)c1cccs1
  109	106	/	-5
NC(=O)c1c(NC(=O)CSc2nc(-c3cccs3)cc(C(F)(F)F)n2)sc2c1CCC2
  100	99	-3	2
COc1ccc(CNc2ccc(-c3ccc(OC)cc3)nn2)cc1
  104	103	0	-23
CNS(=O)(=O)c1cn(CC(=O)NC2CCCC2)cc1S(=O)(=O)NC
  103	103	-11	-11
O=C(CCCn1sc2ccccc2c1=O)NCCC1=CCCCC1
  102	100	94*	4
CCc1ccccc1NC(=O)Cn1nnc(C(=O)NCc2ccccc2)c1N
  101	104	-1	-9
CCC(CO)NC(=O)c1cc2sc3ccccc3c2s1 (stereo unspecified)
  106	111	/	-4
O=C(OCc1ccc(F)cc1)c1cc(-c2ccco2)nc2ccccc12
  108	110	1	-16
Cc1cccc(COc2ccccc2C(=O)O)c1
  105	103	-9	-1
CC(C)(C)OC(=O)N/N=C\c1ccc[nH]1
  100	102	77	7
CC(=O)N1CCn2c1nc1ccccc12
  101	103	/	-2
O=C(O)C1CCCCC1c1nc2ccccc2s1 (stereo unspecified)
  104	101	4	1
CC(=O)N1CCc2cc(NC(=O)CC(=O)c3ccccc3)ccc21
  110	108	-8	-28
O=c1c2cccnc2nc(SCc2ccc(Cl)cc2)n1Cc1ccccc1
  102	108	-1	3
C=CCn1c(SC(C)C#N)nnc1-c1ccc(Br)cc1 (stereo unspecified)
  98	100	-4	-43
CC(Oc1ccccc1)c1nc(-c2cccnc2)no1 (stereo unspecified)
  103	102	-5	-21

# (further entries)
# Every second line gives: PV pol inh	PV pol inh intensity	MbtI inh	MenB inh
O=C(CN1CCN(CC(=O)Nc2ccccc2F)CC1)Nc1ccc(F)cc1
  100	104	-12	-5
CCc1cc(=O)oc2c(CN(C)C)c(O)c(Cl)cc12
  102	102	62	-52
COc1ccccc1CN1CC(C(=O)NCC2CCCO2)CC1=O (stereo unspecified)
  102	101	3	-13
Cc1nccn1CCC1CCNCC1
  101	102	-3	-30
Cc1c(NC(=O)NNc2ccccc2)sc2nc(-c3ccc(Cl)cc3)nn12
  102	100	-27	-21
O=S(=O)(c1ccc(SC2Cc3ccccc3C2O)nc1)N1CCOCC1 (stereo unspecified)
  106	105	29	-18
O=C1NC(=O)C(c2ccccc2)(c2ccccc2)N1
  100&103&100	101&101&101	-15&-3&-29	-16&1
CN(n1cnc2ccsc2c1=O)S(=O)(=O)c1cc(C(F)(F)F)cc(C(F)(F)F)c1
  104	104	-16	2
CC(C)C(c1nnnn1Cc1ccccc1)N1CCCc2ccccc21 (stereo unspecified)
  100	101	-4	-10
CCCOC(=O)c1ccc(N=Cc2ccc(C)s2)cc1
  130	141	/	-3
CCC(C)(C(=O)NC1CCCC1)N(C(=O)CC1NC(=O)NC1=O)c1c(C)n(C)n(-c2ccccc2)c1=O (stereo unspecified)
  100	102	-8	-30
COc1ccc(N2CCN(CCCNC(=O)NC3CC(=O)N(c4ccc5c(c4)OCCO5)C3)CC2)cc1 (stereo unspecified)
  102	100	-3	0

# Another view of some results above.
canonical_smiles | PV pol inh | PV pol inh intensity | MbtI inh | MenB inh
O=C(NC(=S)N1CCOCC1)c1cn(-c2ccccc2)nc1-c1cccnc1 | 103 | 109 | -6 | 0
CC(N=C1NS(=O)(=O)c2ccccc21)C(=O)N1CCN(S(=O)(=O)c2cccs2)CC1 (stereo unspecified) | 101 | 96 | 12 | -5
